Ecoli rRNA inh: reduced GFP signal of wild-type E. coli, primary screen, bacterial rRNA inhibitor project, GFP/RFP fluorescence, OD600, single point | E. coli WT GFP vs humanized-ribosome RFP mutants, 24 h; stronger effect = lower value; DMSO median 0, no signal -100 | actives 1.6% (n = 350,000) | AID 720706, 2013 | GFP signal change (wild-type ribosome), % (test concentration not listed);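 active = significant combined selectivity score with lowered wild-type GFP, culture density cut under 30%, mutant RFP and density less affected; inactive = any of these conditions unmet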; also: one replicate is shown; some compounds called inactive have numbers as strong as hits
FGF22 binding: binders of human FGF22 protein, primary screen, FGF22 synaptogenesis inhibitor project, biophysical, thermal shift, single point | Fibroblast growth factor 22 (Homo sapiens), Q9HCT0 | recombinant FGF22 thermal shift, SYPRO orange fluorescence; percent of sucrose octasulfate shift, DMSO zero | calls only at 9.99 µM | actives 1.5% (n = 340,000) | AID 651658, 2012;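 active = melting point raised past a set limit in the mean and every replicate; inconclusive = no clear call; three in four hits are not shown here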
Target sequence (Q9HCT0 whole entry, looked up): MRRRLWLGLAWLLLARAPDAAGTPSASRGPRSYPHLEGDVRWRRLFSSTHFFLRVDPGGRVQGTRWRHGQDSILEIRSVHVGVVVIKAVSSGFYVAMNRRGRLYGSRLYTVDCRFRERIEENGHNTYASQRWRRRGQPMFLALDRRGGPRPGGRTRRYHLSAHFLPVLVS
Beta apoptosis: inhibitors of cytokine-induced beta cell apoptosis, primary screen, luminescence | protection from apoptosis, % (concentration not given with the values) | INS-1E cytokine-induced death, ATP luminescence, 48 h; percent of positive-control rescue, neutral wells zero | actives 0.8% (n = 300,000) | AID 435005, 2010;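 active = all replicates at 75% or more, or half of them and the mean; inconclusive = half reach 75% but not the mean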;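 also: 0% = cytokine-treated negative control wells and 100% = positive control rescue; higher means more ATP so stronger rescue from cytokine killing; wells of about 40 µL received 100 nL stock; the first replicate is given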
Calb FLC: C. albicans growth inhibition with fluconazole, primary screen, CaCi-2 strain, Alamar Blue fluorescence; C. albicans CaCi-2 (fluconazole-resistant clinical isolate) + fluconazole, 48 h; growth inhibition, % (no concentration beside the values); actives 0.57% (n = 300,000);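 active = most replicates above 75%; inconclusive = exactly half above 75%; inactive = most below 75%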;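 also: all wells also contain fluconazole at 8 µg/ml as a sub-toxic cotreatment; 0% = median of DMSO wells and 100% = median of geldanamycin control wells; wells of about 8 µL received 7.5 nL stock; the first replicate is given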
T cruzi inh: inhibitors of intracellular T. cruzi growth, primary screen, luminescence, NIH3T3 host cells. T. cruzi beta-gal in NIH3T3, 90 h. inhibition, % (no concentration beside the values). actives 1.4% (n = 300,000). AID 1885, 2009;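 active = mean inhibition across valid replicates above about 55%, limit read from the data; inconclusive = mean below that limit but half or more replicates reach it; inactive = mean below it, under half of replicates reach it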;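 also: signal also drops with host cell toxicity which is not excluded here; 0% = plate median of DMSO wells and 100% = zero luminescence signal; higher percent means less beta-gal luminescence so fewer parasites; stock transfer was 50 nL into about 50 µL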
ALR inh: inhibitors of human ALR sulfhydryl oxidase, primary screen, biochemical, H2O2 detection, HRP-luminol luminescence, single point. inhibition, % (no concentration beside the values). FAD-linked sulfhydryl oxidase ALR (Homo sapiens), P55789. actives 3.8% (n = 290,000). purified ALR, DTT oxidation;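 active = mean and each replicate at 75% or more; inconclusive = only one of the two met; inactive = neither met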;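 also: stock transfer was 7.5 nL into about 7.5 µL; 0% = neutral wells and 100% = wells with inactivated enzyme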
Target sequence (P55789 whole entry, looked up): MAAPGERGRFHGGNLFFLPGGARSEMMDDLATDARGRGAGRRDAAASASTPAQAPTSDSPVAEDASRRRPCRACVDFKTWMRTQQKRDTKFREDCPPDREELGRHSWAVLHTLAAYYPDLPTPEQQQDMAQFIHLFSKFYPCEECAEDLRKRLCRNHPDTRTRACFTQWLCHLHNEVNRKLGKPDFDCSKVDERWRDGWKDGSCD
RanGTP-Imp inh: inhibitors of RanGTP-importin-beta interaction, primary screen, biochemical, FRET, CFP-Ran, YFP-importin-beta, homogeneous. cell-free CFP-Ran/YFP-importin-beta FRET ratio. inhibition, % (concentration not given with the values). Ran GTPase (GTP-bound) - importin-beta complex. actives 1.1% (n = 300,000);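 active = most replicates above 15%; inconclusive = exactly half above 15%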;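 also: 0% = DMSO wells and 100% = Ran loaded with GDP instead of GTP; wells of about 40 µL received 100 nL stock; the first replicate is given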
MLL AF4-AF9 inh: inhibitors of AF4 peptide binding to AF9, primary screen, biochemical, AlphaScreen, biotin-AF4 peptide, FLAG-AF9, single point; inhibition, % at 10 µM; actives 0.47% (n = 350,000);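 active = every replicate reaching a set inhibition limit, whatever the replicate mean, cut at about 25% in these data; inconclusive = mean inhibition reaches that limit but some replicates miss it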;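 also: 0% = plate neutral control median and 100% = total signal loss; the record names both 10 and 1 µM as test concentration; the first replicate is given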
Target sequence (P42568 whole entry, looked up): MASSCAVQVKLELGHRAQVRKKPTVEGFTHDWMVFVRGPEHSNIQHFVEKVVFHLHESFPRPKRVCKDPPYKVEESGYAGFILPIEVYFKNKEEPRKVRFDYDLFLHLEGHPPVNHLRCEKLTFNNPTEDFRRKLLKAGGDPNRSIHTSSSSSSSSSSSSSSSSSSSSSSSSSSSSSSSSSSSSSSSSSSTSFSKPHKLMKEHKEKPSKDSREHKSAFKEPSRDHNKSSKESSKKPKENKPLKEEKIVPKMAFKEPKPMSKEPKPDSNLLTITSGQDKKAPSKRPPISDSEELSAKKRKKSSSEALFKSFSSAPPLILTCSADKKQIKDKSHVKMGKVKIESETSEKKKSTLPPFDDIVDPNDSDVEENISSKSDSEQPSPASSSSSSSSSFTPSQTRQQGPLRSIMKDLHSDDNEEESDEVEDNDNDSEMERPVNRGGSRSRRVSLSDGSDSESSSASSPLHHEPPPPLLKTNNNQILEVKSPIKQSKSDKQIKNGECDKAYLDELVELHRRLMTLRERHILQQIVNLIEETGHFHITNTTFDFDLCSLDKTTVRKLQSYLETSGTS
Ecoli rRNA inh OD600: recorded beside Ecoli rRNA inh, whose call it bears; OD600 change, %; measured here: OD600 growth;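 optical density of the mix in the first replicate; 0 = DMSO median and -100 = no signal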
Ecoli rRNA inh RFP: second read-out of Ecoli rRNA inh, no call of its own (marks repeat the call); RFP signal change, %; measured here: RFP humanized mutant strains;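 first replicate; 0 = DMSO median and -100 = no signal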
Starred values were filed as active, the others as inactive; i = inactive; u = inconclusive; x = no result given. A portion of the library; rates above refer to the full screens.

SMILES | Ecoli rRNA inh | Ecoli rRNA inh OD600 | Ecoli rRNA inh RFP | FGF22 binding | Beta apoptosis | Calb FLC | T cruzi inh | ALR inh | RanGTP-Imp inh | MLL AF4-AF9 inh
Cc1c(NS(=O)(=O)c2ccc(N(C)C3CCCCC3)c([N+](=O)[O-])c2)c(=O)n(-c2ccccc2)n1C | x | x | x | x | 1 | 43 | 8 | -14 | -1.4 | x
COC(=O)c1cc(NC(=O)CC2Oc3ccccc3NC2=O)cc(C(=O)OC)c1 (stereo not given) | 6 | 13 | -1.3 | i | 0 | 0 | -13 | -3 | -4.2 | -0.7
Cc1ccc(N(CC(=O)NC2CCCCC2)C(=O)CCCC(=O)Nc2ccccn2)cc1 | 5 | 4 | 0.9 | i | 0 | -4 | 12 | x | -2.3 | 2.6
CCCC(C)C(=O)Nc1ccc(C(N)=O)cc1 (stereo not given) | x | x | x | x | -10 | 3 | -11 | -2 | 0.0 | x
O=C(CN1CCCCC1)NNC(=O)c1ccc([N+](=O)[O-])cc1 | 16 | 20 | 5.9 | i | -5 | -3 | -11 | -4 | 0.8 | -6.4
Cc1cccc(-n2c(C)cc(/C=N/O)c2C)c1 | 4 | -2 | -2.6 | i | 4 | 19 | 2 | 1 | 3.1 | 10
Cc1ccccc1SCC(=O)NC1CCOC1=O (stereo not given) | x | x | x | x | -9 | -8 | -7 | -1 | -2.5 | x
Cc1cccc(C)c1NC(=O)CSc1nc(N2CCOCC2)nc(N2CCOCC2)n1 | 6 | 3 | -3.4 | i | -1 | -4 | 1 | 0 | 1.2 | -1.4
[N-]=[N+]=NC1c2ccccc2C(=O)N1Cc1ccccc1 (stereo not given) | -25 | -11 | -0.8 | i | 2 | -4 | -9 | x | -2.3 | -10
C=CCNC(=S)Nc1sc2c(c1C(=O)OCC)CCN(C(=O)OCC)C2 | x | x | x | x | 7 | 16 | -9 | -6 | 9.4 | x

Another view of two compounds above:
Compound	Ecoli rRNA inh	Ecoli rRNA inh OD600	Ecoli rRNA inh RFP	FGF22 binding	Beta apoptosis	Calb FLC	T cruzi inh	ALR inh	RanGTP-Imp inh	MLL AF4-AF9 inh
Cc1cccc(-n2c(C)cc(/C=N/O)c2C)c1	4	-2	-2.6	i	4	19	2	1	3.1	10
Cc1c(NS(=O)(=O)c2ccc(N(C)C3CCCCC3)c([N+](=O)[O-])c2)c(=O)n(-c2ccccc2)n1C	x	x	x	x	1	43	8	-14	-1.4	x

Additional entries
SMILES | Ecoli rRNA inh | Ecoli rRNA inh OD600 | Ecoli rRNA inh RFP | FGF22 binding | Beta apoptosis | Calb FLC | T cruzi inh | ALR inh | RanGTP-Imp inh | MLL AF4-AF9 inh
O=C1CC(=O)C(n2cncn2)C(c2ccc(Cl)cc2Cl)C1 (stereo not given) | x | x | x | x | -2 | -9 | -11 | -7 | -1.6 | x
CC(C)NC(=O)c1ccccc1NS(=O)(=O)c1ccc(Br)s1 | -19 | -39 | -5.8 | i | x | -16 | -7 | x | 1.8 | -0.7
C=CCn1cc(C(=O)OC)c(=O)c2cc(S(=O)(=O)N3CCCCCC3)ccc21 | x | x | x | x | -2 | -5 | 20 | -12 | -1.5 | 0.1
CCOC(=O)[C@H]1[C@H]2COc3cc(OC)ccc3[C@@H]2N2C(=O)N(c3cccc(Cl)c3)C(=O)[C@@]12C | x | x | x | x | 3 | 18 | 1 | 3 | 2.7 | x
C[C@H](NC(=O)OC(C)(C)C)c1nnc(SCC(=O)Nc2ccc(Br)cc2)o1 | x | x | x | x | -1 | -14 | -12 | -10 | -4.4 | x
CS(=O)(=O)Nc1ccc(-c2ccc(/C=C3\SC(N)=NC3=O)o2)cc1 | -49 | -75 | -17 | i | 0 | 7 | -27 | -8 | -58 | -4.9
CCO[C@H]1OC(C(=O)NC2CC2)=C[C@@H](C)[C@@H]1CCCO | 4 | 11 | 3.7 | i | 0 | 3 | -8 | x | 1.5 | 2.3
COc1ccc(N2CC(O)=C(c3nc(-c4ccc(Cl)cc4)cs3)C2=N)cc1 | 1 | 6 | 1.5 | i | 12 | 3 | 3 | x | 2.5 | 0.4
CN(C(=O)COC(=O)Cn1cnc2ccccc21)C1CCCCC1 | 26 | 17 | 4.6 | i | 1 | x | x | -13 | x | 1.2
O=[N+]([O-])c1ccc2nc(SCc3cn4ccccc4n3)[nH]c2c1 | 2 | -10 | 7.2 | i | -1 | 5 | 7 | 5 | -3.0 | 2.9
O=C(O)c1cnc(-c2ccccc2)nc1Oc1ccc(Cl)cc1 | -33 | -46 | -1.8 | i | 2 | 2 | -10 | 24 | x | -2.7
COc1ccc2c(c1)NC1(O)c3ccccc3C(=O)C21O (stereo not given) | x | x | x | x | x | -1 | 20 | 1 | -3.8 | x
Cc1cccc(-c2nc3c(c(SCC(=O)N4CCOCC4)n2)CCCC3)c1 | x | x | x | x | 3 | 2 | 49 | -8 | -0.8 | x
COc1ccc(Br)cc1-c1noc(-c2ccncc2)n1 | x | x | x | x | -6 | 37 | 0 | -6 | 0.6 | x
COc1ccc(-c2nn(-c3ccccc3)cc2/C=C/C(=O)N2CCOCC2)cc1OC | -24* | -17* | -0.3* | i | 4 | 0 | 23 | -9 | -0.6 | 4.6
O=[N+]([O-])c1ccc(S(=O)(=O)c2ccccc2)nc1 | 11 | 12 | -1.9 | i | 106* | -10 | 73* | 98* | -0.5 | 1.0
Cc1ccccc1N1C(=O)c2ccccc2C1O (stereo not given) | 9 | 13 | 3.8 | i | -5 | 4 | -14 | 12 | 5.3 | -3.5
Cc1cccc(-c2nnc(NC(=O)c3cccs3)s2)c1 | -4 | 4 | -2.8 | i | -5 | 0 | 3 | -11 | -6.6 | -6.3
COC(=O)C1CCN(C(=O)COC(=O)c2ccc(OC)c(S(=O)(=O)N3CCCc4ccccc43)c2)CC1 | -21 | -34 | -6.4 | i | 1 | -5 | -1 | -5 | -2.2 | -1.2
O=C(CNCc1ccccc1)NC1C2CC3CC(C2)CC1C3 (stereo not given) | -3 | -28 | -1.2 | i | -1 | -8 | 4 | -2 | -1.8 | -1.1
CCOc1cccc(-c2nn3c(-c4ccco4)nnc3s2)c1 | x | x | x | x | 4 | 14 | 15 | 10 | -3.6 | x
CCOC(=O)c1csc(NC(=O)c2ccc(S(=O)(=O)N(C)C)cc2)n1 | x | x | x | x | -1 | 14 | 2 | -1 | -1.0 | x
O=c1cc(N2CCCCC2)c(-c2ccccc2)nn1Cc1ccccc1 | -60 | -81 | -20 | i | 4 | x | 48 | -3 | x | 4.7
NC(=O)c1ccc(C23CC4CC(CC(C4)C2)C3)o1 | 3 | 6 | -3.9 | i | x | -38 | -16 | -10 | 0.0 | -3.9
CCCSc1nc2c(c(=O)[nH]c(=O)n2C)n1Cc1ccc(C)cc1 | x | x | x | x | -8 | -2 | 6 | 13 | -3.6 | x
Cc1nc(SCCc2ccccc2)[nH]c(=O)c1C | x | x | x | x | 1 | -1 | -6 | -7 | -2.2 | x
Cc1cccc(NC(c2ccc(O)cc2)c2ccc3ccc(C)nc3c2O)n1 (stereo not given) | x | x | x | x | -16 | 63 | -5 | -38 | u | x
O=C1CC(N2CCN(Cc3ccc4c(c3)OCO4)CC2)C(=O)N1c1ccccc1 (stereo not given) | x | x | x | i | -1 | 6 | 3 | -24 | x | 2.4
COC(=O)c1ccc(C(=O)OCCCc2nc3ccc(N)cc3[nH]2)cc1 | x | x | x | x | -2 | -26 | 5 | 90* | 3.8 | x
O=C(COc1cc(Cl)c(Cl)cc1Cl)N1CCN(c2ccccn2)CC1 | 5 | 10 | -0.7 | i | -25 | 2 | -7 | -2 | u | -2.0
COc1ccc(C(=O)Nc2ccccc2C(=O)Nc2ccncc2)cc1 | -9 | -15 | -1.2 | i | 12 | -11 | u | -6 | 4.4 | 0.5
O=C1C(=O)c2ccccc2C(O)=C1c1ccccc1F | -15 | -7 | 20 | i | -9 | 27 | 7 | -11 | 0.3 | 3.1
C[C@]12CC[C@@H]3c4ccc(O)cc4CC[C@H]3[C@@H]1CC[C@@H]2OC(=O)CCC1CCCC1 | x | x | x | i | 8 | x | -24 | 6 | -4.1 | -13
Cn1c(SCCC#N)nnc1-c1ccc(F)cc1 | x | x | x | x | -3 | -6 | -1 | -8 | 0.4 | x
CC(=O)Nc1ccc(Nc2nc(C)nc3c2oc2ccccc23)cc1 | x | x | x | x | 15 | 3 | 6 | 26 | -0.8 | x
O=C(O)CCC(=O)NNc1ccccc1[N+](=O)[O-] | x | x | x | x | -4 | -20 | -13 | 9 | -3.9 | x
COC(=O)c1cc(-c2c(C)nn(-c3ccccc3)c2C)n[nH]1 | x | x | x | x | 1 | -4 | -3 | 86* | 1.3 | x
COc1ccc2c(c1)[C@H]1[C@H](CO2)[C@H](c2ccccc2)[C@]2(C)C(=O)Nc3cc(C)ccc3C(=O)N12 | 15 | 6 | -2.1 | i | 2 | x | x | -2 | x | 1.3
O=C(NCCCN1CCOCC1)c1ccc2c(c1)N(Cc1ccc(Cl)cc1)C(=O)c1ccccc1S2=O (stereo not given) | 3 | 1 | 19 | i | 1 | 11 | -3 | -5 | 1.3 | 2.6
CN(Cc1nnc(-c2ccc(F)cc2)o1)c1ccccc1 | -26* | -12* | 4.6* | i | x | -8 | -9 | 8 | u | 0.7
COc1ccc(CN2CC(C(=O)NCCC3=CCCCC3)CC2=O)cc1 (stereo not given) | x | x | x | x | -1 | -9 | 14 | 4 | -6.3 | x
Cc1ccc(NC(=O)c2ccco2)c(NC(=O)c2cccs2)c1 | x | x | x | x | 0 | 15 | -5 | -5 | 3.6 | x
COC12NC(=O)N(C)C1(OC)C(=O)N(C)C(=O)N2C (stereo not given) | x | x | x | x | -6 | 8 | -2 | -5 | u | x
Cc1c(-c2ccc(F)cc2)nc(N)c(C#N)c1-c1cccs1 | x | x | x | x | -8 | 27 | -2 | x | 0.6 | x
CCCCOC(=O)c1cc(=O)[nH]c(=O)[nH]1 | 11 | 8 | -1.1 | i | 0 | 1 | -20 | -5 | 3.0 | -0.8
Cc1ccccc1Nc1nc(N)nc(COC(=O)[C@@H](NC(=O)c2c(F)cccc2F)C(C)C)n1 | -6 | -9 | 0.5 | i | -1 | -2 | 4 | -10 | x | -9.8
CCN(CC)C(=O)N1c2ccccc2C=Cc2ccccc21 | x | x | x | x | -8 | -3 | 2 | -2 | 4.1 | x
COc1ccc(NC(=O)CCNS(=O)(=O)c2ccc3c(c2)CCC(=O)N3)cc1 | x | x | x | x | 3 | 3 | -2 | -3 | -2.4 | x
O=C(Nc1cccc(S(=O)(=O)N2CCCCCC2)c1)c1cc(=O)c2ccccc2o1 | -24 | -24 | 1.2 | i | 14 | -4 | 37 | -6 | -1.8 | 7.2
